From PubChem
rRNA inh HTS – inhibits bacterial ribosomal RNA function over humanized ribosomes; GFP signal change (wild-type ribosome), % (test concentration not listed); E. coli WT GFP vs humanized-ribosome RFP mutants, fluorescence, 24 h; hits give low values; DMSO median 0, no signal -100; 350,000 tested, 1.6% active; AID 720706;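 active means significant combined selectivity score with lowered wild-type GFP, culture density cut under 30%, mutant RFP and density less affected; inactive means any of these conditions unmet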; further: one replicate is shown; some compounds called inactive have numbers as strong as hits
HNF4A DNA FP – change in binding of human HNF4 alpha to DNA; P41235; HNF4a-FITC DNA binding, fluorescence polarization, 1 h; activity change, % at 10 µM; 360,000 tested, 0.3% active; in the data active means activity change above about 30%, passing the limit was not always enough;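 further: controls were the assay level and a saturating level of protein; the project sought stronger binding though the title names inhibitors; some compounds called inactive have numbers as strong as hits; positive values seem to mean higher polarization but the record does not say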
Target sequence (P41235 whole entry, looked up): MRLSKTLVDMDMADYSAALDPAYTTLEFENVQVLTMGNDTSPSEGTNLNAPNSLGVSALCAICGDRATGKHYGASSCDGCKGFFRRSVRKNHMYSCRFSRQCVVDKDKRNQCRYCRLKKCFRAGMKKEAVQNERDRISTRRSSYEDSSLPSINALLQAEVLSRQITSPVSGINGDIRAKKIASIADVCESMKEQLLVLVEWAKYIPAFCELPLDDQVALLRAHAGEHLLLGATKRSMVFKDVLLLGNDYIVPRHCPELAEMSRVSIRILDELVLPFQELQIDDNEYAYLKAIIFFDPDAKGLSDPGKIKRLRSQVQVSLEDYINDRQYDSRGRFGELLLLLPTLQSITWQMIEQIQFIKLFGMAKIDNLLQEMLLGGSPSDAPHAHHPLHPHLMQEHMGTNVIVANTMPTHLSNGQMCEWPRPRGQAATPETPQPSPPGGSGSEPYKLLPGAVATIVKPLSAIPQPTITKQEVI
E coli growth – blocks Escherichia coli growth; OD600 absorbance (test concentration not listed); 330,000 tested, 0.21% active; OD600, 23 h; hits give low values; AID 1053175;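 active means OD600 absorbance below the run mean of sample wells minus 3.6 SD, in any replicate, cut at about 0.56 in these data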;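 further: stock transfer was 300 nL into about 60 µL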
ALR H2O2 inh – blocks human ALR sulfhydryl oxidase activity | P55789 | inhibition, % (no concentration beside the values) | 290,000 tested, 3.8% active | AID 485317 | purified ALR, DTT oxidation, H2O2 HRP-luminol luminescence;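 active means mean and each replicate at 75% or more; inconclusive means only one of the two met; inactive means neither met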;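 further: stock transfer was 7.5 nL into about 7.5 µL; 0% = neutral wells and 100% = wells with inactivated enzyme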
Target sequence (P55789 whole entry, looked up): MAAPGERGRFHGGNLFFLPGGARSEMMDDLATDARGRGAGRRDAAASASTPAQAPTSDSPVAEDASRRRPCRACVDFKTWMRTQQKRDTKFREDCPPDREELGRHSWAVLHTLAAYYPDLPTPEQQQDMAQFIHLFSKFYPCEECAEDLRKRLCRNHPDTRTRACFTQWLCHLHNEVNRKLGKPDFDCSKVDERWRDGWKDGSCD
FGF22 binding – shifts melting point of recombinant human FGF22 | Q9HCT0 | recombinant FGF22 thermal shift, SYPRO orange fluorescence; percent of sucrose octasulfate shift, DMSO zero | 340,000 tested, 1.5% active | calls only at 9.99 µM;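 active means melting point raised past a set limit in the mean and every replicate; inconclusive means no clear call; three in four hits are not shown here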
Target sequence (Q9HCT0 whole entry, looked up): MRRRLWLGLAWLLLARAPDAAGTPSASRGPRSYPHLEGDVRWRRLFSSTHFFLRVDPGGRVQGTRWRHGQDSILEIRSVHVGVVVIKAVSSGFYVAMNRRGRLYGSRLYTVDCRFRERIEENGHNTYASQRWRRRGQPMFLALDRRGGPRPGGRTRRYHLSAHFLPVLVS
AF4-AF9 inh – MLL-AF4/AF9 protein interaction inhibition; P42568; AlphaScreen, biotin-AF4 peptide binding to FLAG-AF9; inhibition, % at 10 µM; 350,000 tested, 0.47% active; AID 651704;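 active means every replicate reaching a set inhibition limit, whatever the replicate mean, cut at about 25% in these data; inconclusive means mean inhibition reaches that limit but some replicates miss it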;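 further: 0% = plate neutral control median and 100% = total signal loss; the record names both 10 and 1 µM as test concentration; the first replicate is given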
Vif TR-FRET – HIV-1 Vif–A3G interaction blockers – biochemical, TR-FRET, GST-Vif 1-94, biotin-A3G peptide, dose response retest, primary screen (AID 1117319); TR-FRET GST-Vif / biotin-A3G peptide binding; higher % means a stronger effect; test concentration not given here; strong numbers were not always called active; one-dose inhibition, %; IC50 in µM for titrated hits; 260,000 tested, 0.57% active;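 active means above the screen mean plus three standard deviations and confirmed in dose response; inconclusive means results disagree or hit not tested in dose response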;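 further: Vif residues 1-94 fused to GST binding biotinylated APOBEC3G peptide 110-148; 0% = full assay without inhibitor and 100% = GST in place of GST-Vif; retest series ran down from 100 µM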
rRNA inh HTS OD600 – further read-out of rRNA inh HTS, marked with its call; OD600 change, %; measured here: OD600 growth;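 optical density of the mix in the first replicate; 0 = DMSO median and -100 = no signal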
rRNA inh HTS RFP – recorded beside rRNA inh HTS, whose call it bears; RFP signal change, %; measured here: RFP humanized mutant strains;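 first replicate; 0 = DMSO median and -100 = no signal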
Starred values were filed as active, the others as inactive; i = inactive; ? = inconclusive; · = no result given; & = joins results of further samples.

Sequence of screens – rRNA inh HTS | rRNA inh HTS OD600 | rRNA inh HTS RFP | HNF4A DNA FP | E coli growth | ALR H2O2 inh | FGF22 binding | AF4-AF9 inh | Vif TR-FRET
> CCCN(CCC)S(=O)(=O)c1ccc(C(=O)Nc2nnc(-c3cccc(OC)c3)o2)cc1
  · | · | · | -3.1 | 0.71 | 5 | i | -0.4 | 3%
> Cc1cccc(C(=O)NCC(=O)OCC(=O)c2ccc(Br)s2)c1
  1 | 7 | -0.6 | 3.7 | 0.71 | 0 | i | 0.4 | ·
> CN1CCN(Cc2cc(=O)oc3cc4c(cc23)CCC4)CC1
  · | · | · | 0.0 | 0.71 | -6 | · | · | -6%
> COc1cc(OC)c2c(c1)OC(=O)CC2c1ccc(C)cc1 (stereo not drawn)
  -22 | -44 | -9.0 | 2.3 | 0.71 | · | i | 0.3 | -2%
> Cc1nn(CCO)c2ncc(C(=O)c3cc(Cl)ccc3O)cc12
  1 | 0 | 1.2 | 2.6 | 0.68 | 3 | i | 1.3 | ·
> COc1ccc(-c2nn(-c3ccccc3)cc2/C=C/C(=O)N(C)CC(=O)Nc2cccc(F)c2)cc1OC
  -1 | -11 | 5.2 | 3.0 | 0.73 | · | i | -1.5 | ·
> Cc1cccc(C(=O)N(CCc2ccccc2)Cc2ccccc2)c1[N+](=O)[O-]
  0 | -11 | 2.2 | 1.8 | 0.76 | 0 | i | -1.2 | -5%
> Oc1c(Cl)c(Cl)c2ncccc2c1Cl
  10 | -2 | -2.3 | 3.9 | 0.68 | · | i | -0.4 | -7%
> CN(C)c1ccc(S(=O)(=O)N2CCCCC2)cc1NC(=O)C1CSC2(C)CCC(=O)N12 (stereo not drawn)
  1 | -6 | -0.7 | 1.2 | 0.71 | -9 | i | 2.9 | 0%
> C=CCN=C1NC(c2cccc(C(F)(F)F)c2)C(C(=O)OC)=C(C)N1C (stereo not drawn)
  16 | 6 | 2.0 | · | · | · | i | -2.2 | ·
> CCC(C)(C)NC(=O)c1ccc2c(c1)OCCO2
  9 | -6 | 3.4 | 1.8 | 0.7 | · | i | -1.1 | -1%
> O=C1COC(c2ccccc2)=CN1Cc1ccccc1
  -21 | -18 | 0.4 | -3.2 | 0.69 | -1 | i | · | ·
> CN=C(Nc1cc(Cl)ccc1Cl)SC1CC(=O)N(c2ccc(C(=O)OC)cc2)C1=O (stereo not drawn)
  · | · | · | 2.4 | 0.75 | -14 | · | · | -7%&0%
> CC1CCCN(C(=O)C2CCN(c3ncnc4c3nc3n4CCCCC3)CC2)C1 (stereo not drawn)
  -7 | 3 | 3.0 | 6.8 | 0.69 | -1 | i | -3.2 | ·
> O=C(Oc1cccc2c(O)cccc12)c1ccccc1
  · | · | · | -2.2 | 0.68 | ? | · | · | 3%
> CCN(CC)CCN(Cc1cc2cc3c(cc2[nH]c1=O)OCCO3)C(=O)NC1CCCCC1
  · | · | · | -3.6 | 0.67 | -6 | · | · | ?
> CCn1cc(S(=O)(=O)Nc2cccnc2)cn1
  2 | -1 | -0.6 | 2.1 | 0.71 | -19 | i | -4.6 | ·
> CCC(=O)Nc1ccc2c(c1)C(=O)N(C)[C@H]1CC[C@H](CC(=O)NC3Cc4ccccc4C3)O[C@H]1CO2
  0 | -8 | -2.2 | · | · | · | i | -9.1 | ·
> CNC[C@H]1Oc2c(NC(=O)NC3CCCCC3)cccc2C(=O)N([C@H](C)CO)C[C@@H]1C
  1 | 6 | -2.6 | · | · | · | i | -2.5 | ·
> CC1CCCN(S(=O)(=O)c2ccc(NC(=O)CN3C(=O)NC(C)(c4ccccc4)C3=O)cc2)C1 (stereo not drawn)
  -5 | -16 | 3.5 | -2.7 | 0.67 | -6 | i | 6.2 | 0%
> COc1ccc(CN2CC3(CN(C(C)=O)C3)c3c([nH]c4cc(OC)ccc34)[C@@H]2CO)cc1
  0 | 6 | -4.4 | · | · | · | i | -0.1 | ·
> O=C(CN1CCOCC1)N1CCCCN2[C@@H](CO)[C@@H](c3ccc(C#Cc4ccccc4)cc3)[C@@H]2C1
  6 | -3 | 0.9 | · | · | · | i | 3.1 | ·
> CCn1c(CO)nc2c1c(=O)[nH]c(=O)n2Cc1ccccc1
  12 | 6 | 0.2 | 1.6 | 0.66 | · | i | -7.8 | -7%
> Cc1c(-c2ccc(Cl)cc2Cl)nc2ccccc2c1C(=O)NCCN1CCOCC1
  1 | 3 | -1.5 | -0.7 | 0.68 | -9 | i | 1.8 | ·
> COCCCN1CN(S(=O)(=O)c2ccc(Cl)cc2)c2nc3ccccc3nc21
  · | · | · | 1.2 | 0.75 | -10 | · | · | 21%
> O=C(NC1(C(F)(F)F)NC(=O)N(Cc2cccnc2)C1=O)c1ccncc1 (stereo not drawn)
  14 | 7 | -9.0 | -4.2 | 0.66 | -6 | i | 2.6 | -6%
> CCN1[C@@H]2Cn3c(ccc(-c4ccccc4)c3=O)[C@H]1[C@@H](C(=O)Nc1ccccc1)[C@@H]2CO
  3 | -6 | 1.1 | · | · | · | i | 2.4 | ·
> C[C@@H]1CN([C@H](C)CO)C(=O)c2cc(NC(=O)C3CCCCC3)ccc2O[C@@H]1CN(C)C(=O)Nc1cccc2ccccc12
  -4 | -4 | 0.7 | · | · | · | i | 0.4 | ·
> CCOC(=O)CNC(=O)CSc1nnc(-c2ccc(OC)cc2)n1CC
  · | · | · | -0.2 | 0.68 | 0 | · | · | 27%
> Cc1cc(OCC(=O)N2CCOCC2)ccc1NC(=O)C1CCCCC1
  · | · | · | -1.1 | 0.72 | 1 | · | · | 0%
> CCN(CC)c1ccc(C2NC(=O)c3ccccc3N2)cc1 (stereo not drawn)
  · | · | · | 2.8 | · | · | i | -1.5 | -10%
> COc1ccc(Cl)cc1S(=O)(=O)N1CCC(C(=O)N2CCOCC2)CC1
  5 | 9 | -0.4 | 0.6 | 0.66 | -13 | i | 0.4 | ·
> C[C@@H]1CN([C@@H](C)CO)C(=O)c2cc(C#CC3(O)CCCC3)cnc2O[C@@H]1CN(C)S(=O)(=O)c1ccc(F)cc1
  4 | 2 | -1.2 | · | · | · | i | -4.5 | ·
> C(=C\c1ccccc1)/CSc1nnc(-c2cccnc2)n1Cc1ccco1
  · | · | · | 0.6 | 0.77 | 88* | · | · | 15%
> O=C(CN1CCC(n2nnc3cc(F)ccc32)CC1)NCc1ccco1
  · | · | · | 1.7 | 0.67 | -14 | · | · | 7%
> CCc1cc(C(c2ccncc2)N2CCN(C)CC2)c(NC(=O)c2ccccc2)s1 (stereo not drawn)
  -4 | -6 | -5.4 | 2.6 | 0.7 | 3 | i | 4.9 | 2%
> CC1(C)C2CC=C(/C=N/NC(=O)C(N)=O)C1C2 (stereo not drawn)
  2 | 1 | -3.4 | 2.7 | · | -8 | i | -1.4 | 9%
> O=C(OCc1cc2ccccc2[nH]c1=O)c1cccs1
  11 | 5 | -5.6 | 3.1 | 0.72 | -2 | i | -2.3 | ·
> O=C(c1cccc(F)c1)N1C[C@@H]2[C@H](c3ccccc31)[C@@H](CO)N2C(=O)c1ccccn1
  0 | 16 | -6.2 | · | · | · | i | -2.2 | ·
> N#Cc1sc(NCc2ccccn2)nc1Cl
  0 | 8 | -1.5 | -0.2 | 0.62 | 48 | i | 3.4 | -4%
> Cc1cccc(NC2SC(=O)NC2=O)c1 (stereo not drawn)
  3 | 3 | -8.4 | 5.5 | 0.73 | 1 | i | -3.3 | 18%
> CCCN(C)C[C@@H]1Oc2cc(-c3ccc(C)cc3)ccc2S(=O)(=O)N([C@@H](C)CO)C[C@H]1C
  4 | -12 | 0.2 | · | · | · | i | -5.0 | ·
> O=C1C=CC(O)C2(CO)OC12 (stereo not drawn)
  24 | 20 | -0.5 | -1.1 | · | · | i | -0.3 | 13%
> CN(C)c1ccc(N=Nc2ccccc2C(=O)OCC(=O)N2CCCCCC2)cc1
  · | · | · | 2.9 | 0.72 | · | · | · | -2%
> Cc1cc(Cl)c(S(=O)(=O)NCc2cccnc2)cc1OCC(N)=O
  · | · | · | -3.2 | 0.74 | 2 | · | · | 0%
> O=C(COC(=O)c1ccc(OC(F)F)cc1)NCC1CCCO1 (stereo not drawn)
  10 | 10 | 2.9 | 4.5 | · | · | i | -4.0 | -8%
> COC(=O)c1cn(C(=O)c2ccc(Cl)cc2)c2ccccc12
  7 | -5 | 0.0 | 0.6 | 0.69 | 2 | i | -3.2 | ·
> CCCNC(=O)N1C[C@H](C)[C@@H](OC)CN(C)C(=O)c2cc(NS(C)(=O)=O)ccc2OC[C@@H]1C
  -2 | -12 | 0.8 | · | · | · | i | -2.1 | ·
> COc1ccccc1CNC(=O)c1cnc2ccccn2c1=O
  -4 | -4 | -2.4 | 2.4 | 0.73 | 9 | i | -1.5 | 0%
> CC(NC(=O)c1cccs1)c1ccccc1 (stereo not drawn)
  2 | 4 | 0.8 | -1.8 | 0.6 | -25 | i | -2.8 | ·
> CCCC1C2C(=O)N(c3ccccc3OC)C(=O)C2ON1c1ccccc1 (stereo not drawn)
  · | · | · | -1.9 | 0.72 | -6 | · | · | -4%
> CC1(OC(=O)C2CCCC2)C(=O)C=C2C=C(c3ccc(C#N)cc3)OC=C2C1=O (stereo not drawn)
  11 | 13 | 15 | -15 | · | -8 | i | 3.2 | ·
> Cn1c(=O)c2ncn(C)c2n(C)c1=O
  2 | 10 | 2.1 | -0.3 | 0.65 | · | i | -0.2 | 8%
> Cc1nc2sc(C(=O)O)c(N)c2c2c1COC(C)(C)C2
  · | · | · | -0.6 | · | -26 | · | · | ?
> CCCCC(C(=O)NC(C)(C)C)N(Cc1ccco1)C(=O)c1snc(C(N)=O)c1N (stereo not drawn)
  · | · | · | 0.6 | 0.7 | -1 | · | · | 0%
> C[C@H](CO)N1C[C@H](C)[C@@H](CN(C)Cc2cccc(F)c2)Oc2cc(C#Cc3ccccn3)ccc2S1(=O)=O
  -1 | 6 | 6.5 | · | · | · | i | -2.8 | ·
> C/C=C/c1ccc2c(c1)O[C@H](CN(C)C(=O)CC)[C@H](C)CN([C@H](C)CO)S2(=O)=O
  0 | -2 | -2.4 | · | · | · | i | -1.3 | ·
> CC1CCN(C(=O)c2ccc(NC3=C(Cl)C(=O)N(Cc4ccccc4)C3=O)cc2)CC1
  -5 | -18 | 3.4 | 0.5 | 0.7 | · | i | 6.4 | 5%

Ordered by length of the SMILES (ascending): some entries from above
Sequence of screens – rRNA inh HTS | rRNA inh HTS OD600 | rRNA inh HTS RFP | HNF4A DNA FP | E coli growth | ALR H2O2 inh | FGF22 binding | AF4-AF9 inh | Vif TR-FRET
> COC(=O)c1cn(C(=O)c2ccc(Cl)cc2)c2ccccc12
  7 | -5 | 0.0 | 0.6 | 0.69 | 2 | i | -3.2 | ·
> CCCC1C2C(=O)N(c3ccccc3OC)C(=O)C2ON1c1ccccc1 (stereo not drawn)
  · | · | · | -1.9 | 0.72 | -6 | · | · | -4%
> CCCN(C)C[C@@H]1Oc2cc(-c3ccc(C)cc3)ccc2S(=O)(=O)N([C@@H](C)CO)C[C@H]1C
  4 | -12 | 0.2 | · | · | · | i | -5.0 | ·

Shown as a hit in ALR H2O2 inh, of those listed so far:
Sequence of screens – rRNA inh HTS | rRNA inh HTS OD600 | rRNA inh HTS RFP | HNF4A DNA FP | E coli growth | ALR H2O2 inh | FGF22 binding | AF4-AF9 inh | Vif TR-FRET
> C(=C\c1ccccc1)/CSc1nnc(-c2cccnc2)n1Cc1ccco1
  · | · | · | 0.6 | 0.77 | 88* | · | · | 15%

Only part of the results is shown; rates above refer to the full screens.
